Ab BasE inh = blocks the Acinetobacter baumannii siderophore enzyme BasE. purified BasE, fluorescence polarization binding displacement. inhibition, % (no concentration beside the values). 0.1% of 84,000 active. AID 485350;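 active means both replicates above 25% with normal brightness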;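 further: 0% = negative plate control signal and 100% = positive plate control signal; stock transfer was 100 nL into about 30 µL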
LANA-nucl inh = LANA-nucleosome interaction inhibition; 0.3% of 51,000 active; z-score (test concentration not listed); FITC-LANA1-23 / chicken nucleosome fluorescence polarization; stronger effect = lower value;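 active means both repeat wells score below -2 in polarization z-score versus plate sample wells, excluding overly bright wells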;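 further: 100 nL library stock added to about 30 µL; numbers are from one replicate; some results filed as inactive read as strong as hits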
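Assay system: purified chicken nucleosomes with FITC-labelled LANA N-terminal peptide (1-23) / Probe or stimulus: 50 nM FITC-LANA1-23 probe / Compound dosing: pin-transferred compound, 100 nL / Times: compound with peptide–nucleosome mix 10–45 min at room temperature / Technique: fluorescence polarization, 480 nm excitation, 535 nm parallel and perpendicular emission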
The depositor's hits bear a star; / = not tested or not shown; & = joins results of further samples. Not all compounds are listed; the hit share may differ from the screen's.

SMILES	Ab BasE inh	LANA-nucl inh
CC(=O)N1CCOc2ccc(S(=O)(=O)N(C)CC(=O)Nc3ccc(C)cc3)cc21	2.2	-0.13
CCOC(=O)N1CCC(N2Cc3ccc(C(=O)NCc4ccccc4OC)cc3C2=O)CC1	-3.9	1.6
CC(C)NC(=O)c1ccc(-c2ccccc2)s1	-3.4	0.024
CN(C)C(=O)c1ccc(-c2n[nH]c(=O)c3ccccc23)cc1	0.0	0.074
CC1=NN(C(=O)COc2cc(C)cc(C)c2)C(O)(C(F)(F)F)C1 (configuration not stated)	0.0	/
CCc1cc(=O)oc2c3c(c(Cl)cc12)OCN(Cc1ccco1)C3	2.1	0.67
CCOC(=O)c1c(-c2ccco2)csc1NC(=O)Cn1cnc2ccccc2c1=O	1.5	/
Cc1cc(C(=O)CSc2n[nH]c(-c3cccs3)n2)c(C)n1-c1nccs1	-0.9	/
CC(=O)NC1(C(F)(F)F)N=C(c2ccc(C)cc2)NC1=O (configuration not stated)	3.4	0.028
O=C(COn1nnc2ccccc21)NC(=O)Nc1ccc2c(c1)OCCO2	10	/
COc1ccc(N2CC(C(=O)OCC(=O)Nc3ccccc3C(F)(F)F)CC2=O)cc1 (configuration not stated)	1.3	/
CCOC(=O)CCc1c(C(=O)OCC)[nH]c(CC)c1C(=O)OCc1ccccc1	1.6	0.35
CCCn1nnnc1Cn1cnc2scc(-c3ccc(C)s3)c2c1=O	-4.6	/
N#Cc1ccc(COC(=O)C2CN(Cc3ccc(C#N)cc3)CCS2)cc1 (configuration not stated)	1.5	/
COc1cccc(NC(=O)Cn2sc3ccccc3c2=O)c1	-0.7	/
Cc1ccc(C(=O)OCC(=O)N2CCC(c3ccccc3)=N2)cc1	-2.4	/
COc1ccc(-c2nc(=S)c3c(n2CCN2CCOCC2)CC(C)(C)OC3)cc1	1.0	0.57
O=C(O)c1cc2c(s1)CCCCC2	0.5	-0.18
COc1ccc(S(=O)(=O)N2CCn3c(nc4ccccc43)C2)cc1OC	-1.9	-0.054
Cc1nc(N)nc(OCC(F)(F)C(F)F)c1Br	0.4	-1.3
CN(C)c1ccc(NC(=O)Nc2ccc(F)cc2)cc1	/	-1.3
c1cc2c(cc1CN1CCSCC1)OCO2	2.0	-0.82
CCOc1ccc(C(=O)c2ccccc2C(=O)O)cc1OCC	-3.0	/
Cc1ccc(CNC(=O)Nc2ccc(C(C)(C)C)cc2)n1C	1.1	0.28
COC(=O)C1=C(Cn2cnc3ccccc32)NC(=O)NC1c1ccc(OC)cc1 (configuration not stated)	2.0	1.1
COc1cc(/C=C2/SC(=Nc3ccccc3)N(CCc3ccccc3)C2=O)ccc1OCC(N)=O	2.8	/
Cc1cc(S(=O)(=O)N2CC=C(c3ccccc3)CC2)c(C(F)(F)F)o1	/	-0.29
O=C(COC(=O)C12CCC(=O)N1c1ccccc1S2)N1CCC(c2ccccc2)=N1 (configuration not stated)	-0.8	/
COc1ccc2[nH]c(=O)c(C(c3nnnn3Cc3ccccc3)N3CCCC3)cc2c1 (configuration not stated)	-2.2	0.48
N#Cc1c(NC(=O)CSc2ncnc3c2cnn3-c2ccccc2)sc2c1CCC2	-3.0	/
O=C1c2ccccc2C(=O)N1CN(C(=O)c1ccccc1)c1ccc(Br)cc1	2.6	/
O=C(CSc1nncn1-c1ccccc1)NCc1ccccc1	0.6	0.84
COc1ccc(CCNC(=S)N2CCCC2)cc1OC	1.2	-0.52
O=C(CCCc1ccccc1)Nc1cccnc1	1.3	-0.56
CS(=O)(=O)N(CC(=O)N1CCN(Cc2ccc3c(c2)OCO3)CC1)Cc1ccccc1	1.9	0.98
CCn1c(SCC(N)=O)nnc1-c1cccs1	2.9	/
CCCOC(=O)COc1ccc2c(=O)c(-c3ccccc3OC)coc2c1	2.9	/
CCOC(=O)C1CCN(C(=O)c2ccc(CC)cc2)CC1	-0.5	/
OCCN/N=C/c1ccc(Br)cc1	3.5	/
C(=N\N1CCN(C(c2ccccc2)c2ccccc2)CC1)/c1cccnc1	2.4	/
O=C(O)c1cc2c(nc3ccccn32)s1	19	/
CC(=O)N1CCc2cc(N)ccc21	3.4	-1.1
C/C(=N/O)c1nonc1/C(C)=N\O	2.9	-0.49
COc1cccc(NC(=O)c2c(O)c3cccc4c3n(c2=O)CC4)c1	-1.0	-0.24
CCC1c2[nH]c3ccccc3c2CCN1C(=O)Nc1cccc(C)c1 (configuration not stated)	0.1	0.061
CC(C)(C)OC(=O)N1CCC(c2c(C(=O)N3CCCC3)cnn2-c2ccccc2)CC1	-1.6	/
CCc1nnc(SCC(=O)N2CCNC(=O)C2CC(=O)OC)n1N (configuration not stated)	2.1	/
COc1ccc2nc(NNC(=O)c3ccc(S(=O)(=O)N4CCCC4)cc3)sc2c1	2.9	0.53

Rewritten in markdown: entries from further up.
| canonical_smiles | Ab BasE inh | LANA-nucl inh |
| --- | --- | --- |
| C(=N\N1CCN(C(c2ccccc2)c2ccccc2)CC1)/c1cccnc1 | 2.4 | / |
| O=C(O)c1cc2c(nc3ccccn32)s1 | 19 | / |

Pulled one by one from the entries so far (six):
SMILES	Ab BasE inh	LANA-nucl inh
C/C(=N/O)c1nonc1/C(C)=N\O	2.9	-0.49
CCOC(=O)C1CCN(C(=O)c2ccc(CC)cc2)CC1	-0.5	/
COc1ccc2nc(NNC(=O)c3ccc(S(=O)(=O)N4CCCC4)cc3)sc2c1	2.9	0.53
C(=N\N1CCN(C(c2ccccc2)c2ccccc2)CC1)/c1cccnc1	2.4	/
CCc1nnc(SCC(=O)N2CCNC(=O)C2CC(=O)OC)n1N (configuration not stated)	2.1	/
CC(=O)N1CCc2cc(N)ccc21	3.4	-1.1

(listing goes on)
SMILES	Ab BasE inh	LANA-nucl inh
CC(C)(C)C(=O)NC1CCN(S(C)(=O)=O)CC1	2.8	0.58
O=C(NCc1ccccc1)c1ccc(CS(=O)(=O)Cc2ccccc2F)o1	-1.3	0.6
CCN(C(C)=O)c1nc(CSc2nnc(C3CCCCC3)n2N)cs1	1.2	/
CCO/C=N/c1oc(-c2ccccc2)c(-c2ccccc2)c1C#N	1.8	0.52
O=C(OCN1C(=O)c2ccccc2C1=O)c1ccc2c(c1)C(=O)N(Cc1ccco1)C2=O	0.0	/
COC(=O)c1ccc(OCC(O)CN2C(=O)c3ccccc3C2=O)cc1 (configuration not stated)	2.5	-0.6
COC(=O)c1ccc(S(=O)(=O)N(CCO)Cc2cc3cc(OC)c(OC)cc3[nH]c2=O)cc1	1.3	-0.091
COc1ccc(-c2nc(CS(=O)(=O)CC(=O)NC3CCCCC3C)c(C)o2)cc1 (configuration not stated)	-3.7	1.8
COc1ccc(OC)c(-n2c(C)cc(/C=C3/C(=N)N4C(=NC3=O)SN=C4S(=O)(=O)CC(C)C)c2C)c1	-0.6	-0.62
COc1ccc(-n2ncc(C(=O)NCCC(C)C)c2C2CCNCC2)cc1	-1.1	-0.066
CCOc1ccc(N2C(=S)NC(c3ccc(N4CCOCC4)cc3)C(C(=O)N3CCOCC3)=C2C)cc1 (configuration not stated)	2.1	/
CSC1=NCCN1C(=O)COc1ccc2ccccc2c1	-1.1	0.042
c1csc(-c2nnc(CON=C3c4ccccc4-c4ccccc43)o2)c1	1.4	/
Cc1onc(-c2c(F)cccc2Cl)c1C(=O)N=C(N)N1CC(C)OC(C)C1 (configuration not stated)	0.1	0.43
O=c1cc(C(F)(F)F)nc(Cc2c(Cl)cccc2Cl)[nH]1	1.2	/
N=C1C(c2ccc(Br)cc2)=C(O)C2CCc3ccccc3N12 (configuration not stated)	1.4	/
N#CC(C#N)=C(N)c1ccccc1	/	-0.18
COc1ccc(Cl)cc1-c1nc(SCC(=O)NC2CCS(=O)(=O)C2)n[nH]1 (configuration not stated)	2.9	/
CC(=O)N/N=C(\Cc1nc2ccccc2[nH]1)c1ccccc1	0.1	/
Cn1/c(=N/N=C2c3cc(S(=O)(=O)NCCO)ccc3-c3ccc(S(=O)(=O)NCCO)cc32)sc2ccccc21	0.0	/
CCC(=O)c1ccc(OC(=O)c2cn(-c3ccccc3)nc2-c2ccccc2)cc1	0.5	/
O=C(OCC(=O)N1CCCC1)c1ccc2c(c1)OCO2	1.6	/
COC(=O)c1ccc(COC(=O)c2ccc3[nH]c(C)c(C)c3c2)o1	1.7	/
O=C(NC1CC1)c1nc(-c2ccccc2)no1	-0.9	0.38
CCC(c1nnnn1C1CCCC1)N(Cc1cccs1)Cc1cc2cccc(C)c2[nH]c1=O (configuration not stated)	-3.7	2.9
CCS(=O)c1ccccc1C(=O)NCc1ccc(F)cc1 (configuration not stated)	0.5	/
CSc1ncc(C(=O)NN)n1C	-2.9	/
COC(=O)C1=C(CSc2nc3ccccc3o2)NC(=O)NC1c1cccc(OC)c1 (configuration not stated)	-1.9	0.51
CCN(c1ccc(OC)cc1)S(=O)(=O)c1ccc2c(c1)CC(C)N2C(C)=O (configuration not stated)	1.6	-0.99
COC(=O)c1c(NC(=O)/C(C#N)=C/c2ccco2)sc(C)c1C	-3.0	-1.3
Cc1cc(C)c2c(=O)cc(-c3ccccc3Cl)oc2c1	-1.3	/
CCCn1c(NC(=O)[C@@H](NC(=O)c2cc(OC)cc(OC)c2)C(C)C)nc2ccccc21	0.6	/
CCOC(=O)c1cc(C)n(CC(=O)OCc2ccc(C#N)cc2)c1C	-0.5	/
COc1ccc(CCC(=O)Nc2ccc(-c3noc(-c4ccc(OC)c(OC)c4)n3)cc2)cc1	4.1	-0.22
O=C(Nc1ccccc1C(=O)NC1CC1)c1ccco1	0.6	0.53
O=C(N/C=C/n1cnc2ccccc21)c1ccc(Cl)cc1	2.6	/
N#C/C(=C(/O)COc1ccccc1)c1nc2ccccc2s1	15	/
CNC(=O)NC(=O)C(Sc1nnnn1-c1cc(C)ccc1C)c1ccccc1 (configuration not stated)	0.1	/
CN(C)/C=C(\C#N)C(=O)Nc1cc(C(F)(F)F)ccc1Cl	/	-0.025
CCCCN1Cc2c(sc(C)c2C)N(C(=O)c2ccccc2)C1	-1.1	/
CN(Cc1cccs1)C(=O)C1CCN(S(=O)(=O)c2ccccc2)CC1	1.2	/
C=CCc1c(C)c(C#N)c2nc3ccccc3n2c1NCCOCCO	-0.5	-1.4
Cc1noc(N)c1C(=O)OCc1ccc(C#N)cc1	-0.5	/
NS(=O)(=O)c1cc(C2(O)NC(=O)c3ccccc32)ccc1Cl (configuration not stated)	-1.0&-0.5	-0.56&0.35&-0.13
Nc1nc(=O)n(CC(O)C(=O)O)cc1Br (configuration not stated)	-1.2	1.4
Cc1cccc2c1nc1s/c(=C/c3cn[nH]c3-c3ccccc3)c(=O)n12	-2.2	/
O=S(=O)(c1ccc(-n2cnnn2)cc1)N1CC=C(c2ccc(F)cc2)CC1	2.1	-0.47
Cn1cccc1/C=N/NC(=O)c1sc2cc(Cl)ccc2c1Cl	3.6	-0.54

3 entries out of the list, sorted by length of the SMILES, rising.
SMILES	Ab BasE inh	LANA-nucl inh
Nc1nc(=O)n(CC(O)C(=O)O)cc1Br (configuration not stated)	-1.2	1.4
NS(=O)(=O)c1cc(C2(O)NC(=O)c3ccccc32)ccc1Cl (configuration not stated)	-1.0&-0.5	-0.56&0.35&-0.13
Cc1cccc2c1nc1s/c(=C/c3cn[nH]c3-c3ccccc3)c(=O)n12	-2.2	/

Next section.
SMILES	Ab BasE inh	LANA-nucl inh
CCC(=O)N(c1nnc(SCC(=O)c2ccc[nH]2)s1)C1CC1	2.9	/
O=C(NCCN1CCOCC1)c1nc(-c2ccc(Cl)cc2)n2c1CCCCC2	-3.2	0.012
COc1cccc(CNCCO)c1OCc1ccccc1F	-0.3	-1.3
O=C(CSc1ncn[nH]1)NCCCc1ccccc1	-3.8	/
C[C@]12CCC3c4ccc(OS(=O)(=O)O)cc4CCC3C1CCC2=O (some centres not stated)	/	-0.012
CC(C)CNC(=O)Cn1c(=O)cnc2ccccc21	-0.4	/
CNC(=O)c1ccccc1S(=O)c1cccc2cccc(C(=O)OC)c12 (configuration not stated)	3.5	-0.19
N=c1nc(SCCC(=O)O)ss1	-0.3	-1.3
CC(C)(C)SCc1cccc(C(=O)N2CCN(c3ncccc3C(F)(F)F)CC2)c1	1.6	/
COc1ccc(OCC(=O)NCc2ccco2)cc1	3.1	/
CCN(C(=O)c1c(-c2ccccc2Cl)noc1C)C(Cc1ccccc1)c1ccc(OC)cc1 (configuration not stated)	/	2
CC1(C)Cc2c(sc(N3CCCC3=O)c2C#N)C(C)(C)N1	-3.0	/
O=C(O)CCc1ccsc1	4.3	/
COc1cc(/C=C/C(=O)C(C#N)c2nc3ccccc3n2C)cc(OC)c1OC (configuration not stated)	0.5	/
CCc1ccc(C2C(C#N)=C(N)Oc3cc(C)oc(=O)c32)cc1 (configuration not stated)	-0.7	0.31
CSc1scc2c1C(=O)/C(=C/N(C)C)CC2	36*	-0.49
Cc1occc1C(=O)N/N=C/c1sc(N2CCOCC2)nc1-c1ccccc1	-0.8	/
O=C(CSc1nnc(COc2cccc3ccccc23)n1CC1CCCO1)NC1CC1 (configuration not stated)	2.1	-0.4
COC(=O)Nc1nc(-c2cccc(Br)c2)cs1	-1.7	-1
C=CCn1c(SCC(C)C)nc2sc3c(c2c1=O)CC(C)(C)OC3	1.0	/
COCCNC(=S)N1CCC(C(=O)c2ccc(F)cc2)CC1	-4.3	2

Single records, as listed above. Values in the order: Ab BasE inh, LANA-nucl inh
COCCNC(=S)N1CCC(C(=O)c2ccc(F)cc2)CC1 reads -4.3, 2
COC(=O)Nc1nc(-c2cccc(Br)c2)cs1 reads -1.7, -1

Screens (PubChem)
